VACV mCherry inh: inhibitors of vaccinia virus infection (mCherry reporter signal) | Potency, µM (series often up to 36.5 µM), without a hit: at the top dose activity change, negative = inhibition, most hits filed as inhibitors | Vaccinia virus mCherry reporter infection, fluorescence; about a quarter of the inactives have no number | 310,000 compounds, 0.63% hits | AID 720579; active = well fitted inhibition curve with a large enough effect; inconclusive = small, poorly fitted or top-dose-only effect; inactive = no such curve, though single readings can be large or run the other way; tested in A549 cells; further: nearly all actives have a fitted effect of over 35% in size; inactives centre near -10
VACV Venus inh: vaccinia inhibition (Venus reporter); 330,000 compounds, 0.46% hits; AID 720580; Potency, µM (highest dose often 36.5 µM), inactives show at the highest dose activity change, negative = inhibition, actives largely listed as inhibitors; Vaccinia virus Venus reporter expression, fluorescence; active means well fitted inhibition curve with a large enough effect; inconclusive means small, poorly fitted or top-dose-only effect; inactive means no such curve, though single readings can be large or run the other way; tested in A549 cells; further: nearly all actives have a fitted effect of over 30% in size; inactives centre near -10
Starred values were filed as active, the others as inactive; i = inactive; ? = inconclusive; . = not tested or not shown; & = joins results of further samples; [ ] = dose if it differs, or a comment. On the % scale 0 is the no-effect control and ±100 the full control effect; potency means the concentration at half of the fitted maximal effect.

[1] Cc1ccc(S(=O)(=O)CCC(=O)OC(C)c2nnc(-c3cccs3)o2)cc1 (configuration not stated)
[2] Cc1ccc2c(C(=O)CN3CCCC3)c(C)[nH]c2c1
[3] CCCCN(C(=O)CSc1cc(C)c2ccc(OC)cc2n1)c1c(N)n(Cc2ccccc2)c(=O)[nH]c1=O
[4] CC(C)(C)[C@H]1C=C(C(=O)O)O[C@@H](OCc2ccc(CO)cc2)C1
[5] CN(C)CCN1CCN([C@H]2CS(=O)(=O)N[C@@H]2COCc2ccccc2)CC1
[6] CCC(=O)N1CCN(c2ccccc2NC(=O)c2ccc([N+](=O)[O-])o2)CC1
[7] O=C(CC1C(=O)N(c2ccccc2)C(=O)N1CCc1cccs1)Nc1ccc(F)cc1 (configuration not stated)
[8] COc1ccc(/C=C2/SC(=S)N(n3c(C)ccc3C)C2=O)cc1

assay / entry	1	2	3	4	5	6	7	8
VACV mCherry inh	-14.8%	.	-2.8%	i	1.9%	?	-3.2%	i
VACV Venus inh	-8.7%	-8.1%	-19.4%	-19.1%	-5.7%	-23.4%	0.0%	2.7%

Given with each value named: part of the list above
5) CN(C)CCN1CCN([C@H]2CS(=O)(=O)N[C@@H]2COCc2ccccc2)CC1
- VACV mCherry inh = 1.9%
- VACV Venus inh = -5.7%
7) O=C(CC1C(=O)N(c2ccccc2)C(=O)N1CCc1cccs1)Nc1ccc(F)cc1 (configuration not stated)
- VACV mCherry inh = -3.2%
- VACV Venus inh = 0.0%
1) Cc1ccc(S(=O)(=O)CCC(=O)OC(C)c2nnc(-c3cccs3)o2)cc1 (configuration not stated)
- VACV mCherry inh = -14.8%
- VACV Venus inh = -8.7%

Following part:
[9] O=C(OCc1ccc(-c2ccccc2)cc1)c1cccc(O)c1
[10] Cc1ccc(C)c(NC(=O)CSc2nccn2Cc2ccco2)c1
[11] Cc1nn(C)c(C(=O)NCc2ccc(Cl)cc2)c1Cl
[12] Cc1cc2c(SCC(=O)NC3CCCCC3)ncnc2s1
[13] CC(=O)Nc1cccc(-c2ccnc3c2CC(C(=O)Nc2cccc(N(C)C)c2)O3)c1 (configuration not stated)
[14] CC(C)N(Cc1ccccc1)C(=O)CN1C(=O)COc2ccc(S(=O)(=O)NC3CCCC3)cc21
[15] O=C(Nc1ccccc1C(=O)N1CCOCC1)C1CC(=O)N(C2CCCC2)C1 (configuration not stated)
[16] CC(=O)c1cc2c(cc1NS(=O)(=O)c1cccc(C(=O)O)c1)OCO2

assay / entry	9	10	11	12	13	14	15	16
VACV mCherry inh	i	i	-23.6%	-8.5%	-19.3%	-12.8%&-2.2%	-4.9%	-7.3%
VACV Venus inh	-20.4%	-13.7%	-19.1%	-2.3%	-21.3%	-3.9%&2.0%	-10.5%	-7.0%

Part of the list above in order of molecular weight, largest number first:
[6] CCC(=O)N1CCN(c2ccccc2NC(=O)c2ccc([N+](=O)[O-])o2)CC1
[10] Cc1ccc(C)c(NC(=O)CSc2nccn2Cc2ccco2)c1
[4] CC(C)(C)[C@H]1C=C(C(=O)O)O[C@@H](OCc2ccc(CO)cc2)C1

assay / entry	6	10	4
VACV mCherry inh	?	i	i
VACV Venus inh	-23.4%	-13.7%	-19.1%

The list continues.
[17] O=C(NNC(=O)c1cccnc1)Nc1cccc2ccccc12
[18] Nc1nc(C(c2ccccc2)c2ccccc2)cs1
[19] COc1ccc(C(=O)Nc2ccccc2C(=O)Nc2ccccc2C(=O)O)cc1
[20] CCCCCN1CC(=O)N2Cc3[nH]c4ccccc4c3C[C@H]2C1=O
[21] Cc1ccc2[nH]c(O)c(N=Nc3ccccc3[N+](=O)[O-])c2c1
[22] COc1cccc(-c2nc(SCC(=O)Nc3ccc4c(c3)OCO4)c(-c3ccccc3)[nH]2)c1
[23] CC(Nc1nc(-c2ccc(F)cc2)cs1)c1nc2cc(C(F)(F)F)ccc2n1CCOCCO (configuration not stated)
[24] COCC(=O)N1CCC(Oc2ccc(C(=O)NC(C)c3nccs3)cc2)CC1 (configuration not stated)

assay / entry	17	18	19	20	21	22	23	24
VACV mCherry inh	-10.4%	?	?	i	-20.6%	-16.2%	18.7%	-14.3%
VACV Venus inh	-4.4%	-13.0%	-20.9%	-14.8%	2.6%	-15.5%	-11.2%	-6.4%

[25] CCC1(c2ccccc2)NC(=O)N(CC(=O)NCc2ccc(C)cc2)C1=O (configuration not stated)
[26] COC(=O)c1cn(CC(=O)N2CCCCC2C)c2ccccc12 (configuration not stated)
[27] Cc1nn(-c2ccccc2)c(Cl)c1/C=N/Nc1ccc(S(=O)(=O)Nc2ccccc2C(=O)O)cc1[N+](=O)[O-]
[28] COc1ccc(CNC(=O)c2nn(C)c3c2CS(=O)(=O)c2ccccc2-3)cc1
[29] NC(=O)c1cc(Cl)ccc1OCC(=O)NC1CC1
[30] N#Cc1ccsc1NC(=O)CSc1ncnc2ccccc12
[31] CCOC(=O)c1c(NC(=S)Nc2ccccc2)sc2c1CCN(CC)C2
[32] COc1ccccc1Nc1nc2cc(C)ccc2cc1C#N

assay / entry	25	26	27	28	29	30	31	32
VACV mCherry inh	-16.5%	.	i	-10.0%	i	.	-15.4%	1.4%
VACV Venus inh	-15.7%	-4.4%	-7.2%	-10.6%	-2.6%	-24.1%	1.6%	-8.4%

[33] CCCOc1ccc(C(=O)Nc2ccc(N(C)C)cc2)cc1
[34] CC(=O)NC12CC3CC(C1)CC(C(=O)N(C)CC(=O)Nc1ccccc1Cl)(C3)C2
[35] CC(=O)OC1OCCOC1NC(=S)Nc1cccc(C(F)(F)F)c1 (configuration not stated)
[36] CC(OC(=O)c1ccc([N+](=O)[O-])s1)C(=O)Nc1ncc(Cl)cc1Cl (configuration not stated)
[37] CC(=O)c1ccc(OCC(=O)N(CCC2=CCCCC2)c2c(N)n(Cc3ccccc3)c(=O)[nH]c2=O)cc1
[38] CC(C)NC(=O)c1sc2ncccc2c1-n1cccc1
[39] CC(=O)Nc1ccc(NS(=O)(=O)c2ccc3c(c2)n(C)c(=O)n3C)cc1
[40] COc1ccc(C2/C(=C(/O)c3ccc4c(c3)CC(C)O4)C(=O)C(=O)N2CCCn2ccnc2)cc1 (configuration not stated)

assay / entry	33	34	35	36	37	38	39	40
VACV mCherry inh	-14.3%	-6.7%	-29.8%	-29.2%	-11.0%	-8.6%	-14.5%	-20.4%
VACV Venus inh	-6.7%	-11.3%	-3.2%	-14.5%	-0.5%	6.6%	1.2%	-9.0%

[41] Brc1ccc(-c2nc(N/N=C/c3cccnc3)c3ccccc3n2)cc1
[42] O=C1NC(=O)N(Cc2ccccc2)C(=O)C1Cc1ccccc1 (configuration not stated)
[43] Cc1cccc2[nH]c3c(N4CC=C(c5ccc(F)cc5)CC4)ncnc3c12
[44] Cc1ccc(C(=O)Nc2nc(-c3ccc([N+](=O)[O-])cc3)cs2)o1
[45] CS(=O)(=O)c1ccc(C(=O)OCC(=O)NNC(=O)COc2ccc(Cl)cc2)cc1
[46] COc1ccc(OC)c(NC(=O)CNC(=O)Cn2cnc3sc(C)cc3c2=O)c1
[47] Cc1cc(C)cc(NC(=O)CN2CCC(NC(=O)Cc3ccccc3)CC2)c1
[48] O=c1c(-c2ccc(O)cc2)coc2cc(OC3OC(CO)C(O)C(O)C3O)ccc12 (configuration not stated)

assay / entry	41	42	43	44	45	46	47	48
VACV mCherry inh	-14.1%	i	?	-14.7%	-2.7%	0.9%[7.34 µM]	-3.2%	i
VACV Venus inh	-5.2%	-15.8%	?	-0.2%	1.7%	0.0%[7.34 µM]	-21.7%	5.3%

[49] CNC(=O)c1cc2cc(OC)ccc2n1CCN(Cc1ccccc1)Cc1ccccc1
[50] COc1ccc(CNC(=O)CN(Cc2ccc(Cl)cc2)C(=O)c2csnn2)cc1
[51] CCc1ccc(NC(=O)N(CCN2CCOCC2)C2CCN(C(C)=O)CC2)cc1
[52] Cc1cc(/N=C/N(C)C)on1
[53] COCCOC(=O)C1=C(C)N=c2s/c(=C\c3cccs3)c(=O)n2C1c1cccs1 (configuration not stated)
[54] CN(C)C(/C=C/Nc1ccc(F)cc1F)=C(C#N)C#N
[55] Cc1c(C)c2cc(Cl)c(OCC(=O)NC3CC(C)(C)NC(C)(C)C3)cc2oc1=O
[56] CCOC(=O)c1ccc(NC(=S)Nc2ccccn2)cc1

assay / entry	49	50	51	52	53	54	55	56
VACV mCherry inh	.	-14.9%	?	-1.3%	.	i	-2.6%	-22.6%
VACV Venus inh	0.2%	-3.0%	-20.3%	-1.7%	0.1%	-16.4%	1.7%	-24.9%

[57] Cc1c(C(=O)N2CCN(c3ccccn3)CC2)sc2ncnc(N3CCOCC3)c12
[58] Cc1ccc(CS(=O)(=O)c2nc3c(c(N(C)C)n2)CCCC3)cc1
[59] COc1ccc(N2CCN(C(C)C(=O)N3CC(C)OC(C)C3)CC2)cc1 (configuration not stated)
[60] COc1ccc(C2c3ccc4ccccc4c3Oc3ncn(CCO)c(=N)c32)cc1 (configuration not stated)
[61] COC(=O)c1ccccc1NC(=O)Cn1nc(C(F)(F)F)c2c1CCCC2
[62] CC(=O)Nc1ccc(S(=O)(=O)N2CCSC2C(=O)O)cc1 (configuration not stated)
[63] O=C(CCc1nc2ccccc2c(=O)[nH]1)Nc1nnc(SCc2ccccc2F)s1
[64] Cc1ccc2c(=O)n3c(nc2c1)C(Cc1ccc(O)cc1)NC(=O)c1cccnc1-3 (configuration not stated)

assay / entry	57	58	59	60	61	62	63	64
VACV mCherry inh	-2.3%	?	-3.6%	-11.2%	-21.2%[7.34 µM]	i	-19.2%	-1.6%
VACV Venus inh	-13.0%	?	-11.1%	-24.7%	-6.5%[7.34 µM]	-9.7%	-7.9%	-14.6%

[65] O=c1[nH]c(=O)n(CCC2=CCCCC2)c(O)c1C=NC1CCN(Cc2ccccc2)CC1
[66] Cc1cccn2c(=O)c(C=Nc3ccccc3)c(NCc3ccco3)nc12
[67] Cc1cc(C)n2c(Nc3c(C)cccc3C)c(-c3ccsc3)nc2n1
[68] CC(C)COC(=O)c1cc(=O)[nH]c2ccccc12
[69] NC(=Nc1ccccc1)NN=Cc1c[nH]c2ccccc12
[70] COc1nc(C)ccc1-c1noc(-c2ccco2)n1
[71] CCOc1cccc(CC(=O)NCc2ccc3c(c2)CCN3C(=O)c2ccc(F)cc2)c1OCC
[72] O=C(CNS(=O)(=O)c1ccc(Br)cc1)NCc1cccnc1

assay / entry	65	66	67	68	69	70	71	72
VACV mCherry inh	.	i	-10.3%	-20.6%	-0.1%	-14.3%	-11.6%	-13.9%
VACV Venus inh	-10.3%	6.0%	-9.7%	-15.1%	?	-8.3%	-7.5%	-11.0%

[73] O=S1(=O)CC(N2CCN(c3ncccn3)CC2)CN1Cc1ccc(F)cc1 (configuration not stated)
[74] Cc1cccc(C)c1NC(=O)CN1CCN(C(=O)c2cc(C3CC3)nn2-c2ccccc2)CC1
[75] CCOC(=O)c1csc(NC(=O)CSc2nnnn2-c2ccc(OC)cc2)n1
[76] CC(c1ccccc1F)n1cc(C(=O)NCCc2ccco2)nn1 (configuration not stated)
[77] COc1ccc(Cc2c(C3CCCCC3)nc3c(Cl)cc(C(F)(F)F)cn23)c(C)c1
[78] Cc1ccc(C(C)n2cc(C(=O)NCc3ccccn3)nn2)cc1 (configuration not stated)
[79] COc1cccc(N2CCN(C(=O)CCC(=O)N3CCOc4ccc(C)cc43)CC2)c1
[80] CC(O)(c1ccc(F)c(F)c1)c1nc(-c2ccoc2)cs1 (configuration not stated)

assay / entry	73	74	75	76	77	78	79	80
VACV mCherry inh	3.0%	-30.0%	-1.7%	-29.8%	-3.1%	-4.4%	12.6%	7.2%
VACV Venus inh	-10.2%	-23.7%	-3.8%	-18.9%	-1.6%	-8.5%	-10.7%	-3.2%

[81] CC1CCCN(C(=O)Cn2c(=O)oc3cc(S(=O)(=O)N4CCCCC4)ccc32)C1 (configuration not stated)
[82] CCOC(=O)c1c(NC(=O)CCCOc2ccc(C(C)(C)C)cc2)sc2c1CCCC2
[83] COc1cc(CN=Cc2c(O)n(C(C)(C)C)c(=O)[nH]c2=O)cc(OC)c1
[84] O=c1cc(CN2CCN(c3ccccc3)CC2)nc2scc(-c3ccccc3)n12
[85] COc1ccc(N2CCN(c3cc(=O)n(Cc4ccc(F)cc4)c(=O)[nH]3)CC2)cc1
[86] CCOC(=O)C1CCCN(c2c(N3CCN(C4CCCCC4)CC3)c(=O)c2=O)C1 (configuration not stated)

assay / entry	81	82	83	84	85	86
VACV mCherry inh	-13.8%	-5.5%	-5.7%	i	-12.5%	-12.1%
VACV Venus inh	-15.5%&7.0%	7.7%	-23.4%	10.6%	-13.8%	-11.6%
